KCNQ2 block: KCNQ2 channel blockers in CHO-K1 cells – cell-based, FluxOR thallium flux, B-score, primary screen (AID 2156); O88943; 20 min; stronger effect = lower value; only compounds with negative scores are shown here; some inactives read as strong as hits; B-score at 10 µM; 310,000 tested, 1.1% active;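 active means fluorescence ratio B-score at most minus 3 library SDs, with starting brightness B-score within 2 library SDs, cut at about -5.5 in these data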
Target sequence (O88943 whole entry, looked up): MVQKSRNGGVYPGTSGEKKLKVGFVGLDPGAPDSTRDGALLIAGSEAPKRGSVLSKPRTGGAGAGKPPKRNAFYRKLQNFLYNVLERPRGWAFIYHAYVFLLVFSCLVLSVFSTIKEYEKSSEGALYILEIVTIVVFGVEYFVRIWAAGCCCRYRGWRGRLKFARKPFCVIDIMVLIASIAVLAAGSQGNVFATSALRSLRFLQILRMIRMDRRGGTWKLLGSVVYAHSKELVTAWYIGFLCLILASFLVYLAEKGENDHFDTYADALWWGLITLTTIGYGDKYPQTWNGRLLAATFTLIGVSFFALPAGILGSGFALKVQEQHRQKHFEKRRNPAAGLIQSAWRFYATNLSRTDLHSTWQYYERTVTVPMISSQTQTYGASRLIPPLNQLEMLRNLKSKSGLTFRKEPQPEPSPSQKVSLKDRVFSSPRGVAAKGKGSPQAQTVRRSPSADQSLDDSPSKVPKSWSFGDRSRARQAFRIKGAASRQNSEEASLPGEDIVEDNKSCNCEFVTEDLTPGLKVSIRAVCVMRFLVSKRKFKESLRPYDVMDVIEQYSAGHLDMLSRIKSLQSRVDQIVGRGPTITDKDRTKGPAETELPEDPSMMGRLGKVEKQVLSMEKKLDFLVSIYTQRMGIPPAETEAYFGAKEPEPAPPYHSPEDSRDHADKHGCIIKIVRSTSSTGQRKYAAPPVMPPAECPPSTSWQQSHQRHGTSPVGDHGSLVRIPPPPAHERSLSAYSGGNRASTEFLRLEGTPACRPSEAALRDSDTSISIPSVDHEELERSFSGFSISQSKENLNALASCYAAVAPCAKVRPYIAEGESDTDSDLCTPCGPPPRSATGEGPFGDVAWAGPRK
KCNQ2 block baseline: further read-out of KCNQ2 block, marked with its call; B-score; measured here: initial fluorescence intensity artifact check;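 brightness before thallium and not channel activity; 0 = typical well and far values either way flag optical interference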
Starred values were filed as active, the others as inactive; i = inactive. These rows are one share of the data; the hit share may differ from the screen's.

entry	Molecule	KCNQ2 block	KCNQ2 block baseline
1	COc1ccc(O)c(-c2cc(-c3cccs3)[nH]n2)c1	i	-1.4
2	O=C(c1ccc(COc2ccccc2[N+](=O)[O-])o1)N1CCCCC1	i	-1.4
3	Cc1cc(C)c(OCC(=O)N2CCN(c3ncc(C(F)(F)F)cc3Cl)CC2)c(C)c1	i	0.09
4	c1ccc(C2C3=C(Nc4ncnn42)c2ccccc2CCC3)cc1 (stereo not given)	i	0.91
5	Nc1nc(SCC(=O)N2CCN(S(=O)(=O)c3ccc(Cl)cc3)CC2)n[nH]1	i	1.2
6	CC(CCc1ccccc1)NC(=O)COC(=O)c1cccc2ccccc12 (stereo not given)	i	-1.4
7	COc1ccc2nc(-c3ccco3)c(-c3ccco3)nc2c1	i	-0.03
8	CC1CCC(NC(=O)c2cc3c(s2)CCCC3)CC1 (stereo not given)	i	-0.33
9	CCN(CC)c1ccc(/C=N/OCC(=O)N2CCCc3ccccc32)cc1	i	-2.3
10	C/C(=N\N1CCN(c2ccccc2)CC1)c1ccc(O)cc1	i	1.2
11	CCCCCCNC(=O)C(C#N)c1nc2ccccc2nc1N1CCCC1 (stereo not given)	i	25
12	COc1cc(CNc2ccc3[nH]c(=O)[nH]c3c2)ccc1OCc1ccc(C)cc1	i	0.53
13	O=[N+]([O-])c1ccc(CSc2nnc(SCc3ccccc3)s2)cc1	i	-1.2
14	Cc1c(NC(=O)C2CCCN2S(=O)(=O)c2cccc3nsnc23)cccc1C(=O)O (stereo not given)	i	-0.4
15	CCNc1nc(NCC)nc(OCC(=O)O)n1	i	-1.1
16	CCOC(=O)C1=C(c2ccccc2)NC(=S)NC1c1cc([N+](=O)[O-])ccc1OC (stereo not given)	i	-0.05
17	CCN1CCN(C(=O)/C=C/c2ccc(OC)cc2)CC1	i	-0.43
18	COc1ccc(CN(C)C(=O)c2ccc(Oc3ccccc3)cc2)cc1F	i	1.7
19	COc1cc(/C=C2\CCC(C3CCCC3)C2=O)ccc1OC(C)C (stereo not given)	i	-1.1
20	CCOC(=O)COc1ccc2c(C)cc(=O)oc2c1C(=O)c1ccccc1	i	0.17
21	CCc1nc2scc(-c3ccccc3)c2c(=O)n1N	i	1.1
22	COc1cccc(CNC(=O)CN2C(=O)CSc3ccc(S(=O)(=O)N4CCOCC4)cc32)c1	i	-0.83
23	O=C1C(=O)N(CCO)C(c2cccc(F)c2)/C1=C(\O)c1ccc(Cl)cc1 (stereo not given)	i	-0.1
24	O=C(Cc1ccccc1)NCC(=O)N1CCCC1	i	0.13
25	CC1=C(C(=O)Nc2ccccc2C(=O)NC2CCCCC2C)SCCO1 (stereo not given)	i	-0.77

In another format: 2 of the compounds above
Below each SMILES – KCNQ2 block, KCNQ2 block baseline
10: C/C(=N\N1CCN(c2ccccc2)CC1)c1ccc(O)cc1
  i, 1.2
11: CCCCCCNC(=O)C(C#N)c1nc2ccccc2nc1N1CCCC1 (stereo not given)
  i, 25

Other records follow.
entry	Molecule	KCNQ2 block	KCNQ2 block baseline
26	O=C(c1cc2cc(F)ccc2[nH]1)N1CCCC(Nc2ccc(F)cc2)C1 (stereo not given)	i	0.67
27	O=C(CSc1nc2ccccc2c(=O)n1Cc1ccco1)c1ccccc1	i	0.48
28	CCN(Cc1ccccc1)S(=O)(=O)c1ccc(S(=O)(=O)N(Cc2cccc(OC)c2)CC2CCCO2)cc1 (stereo not given)	i	-0.33
29	COc1ccccc1CC(=O)NC(=O)c1ccccc1O	i	-2.2
30	CC(C)CN1C(=O)N(c2ccc(Cl)cc2)C(C)(O)CC1(C)C (stereo not given)	i	1.7
31	Cn1c(SCC(=O)N2CCCc3ccccc32)nnc1-c1cccs1	i	1.3
32	Cc1ccc2c(CC(=O)N3CCc4ccccc43)coc2c1	i	1.5
33	CC1CC(C(F)F)n2nc(C(=O)O)cc2N1 (stereo not given)	i	-0.04
34	COc1ccc([N+](=O)[O-])cc1NC(=O)Cc1ccc(Cl)cc1	i	0.04
35	O=C(CN1CCCCC1)n1c2ccccc2c2ccccc21	i	2.6
36	CCOc1ccc(S(=O)(=O)N2CCCCC2)cc1NC(=O)CSCc1c(C)noc1C	i	-0.97
37	CCN1CCc2c(sc(NC(=S)NC(=O)c3ccco3)c2C(N)=O)C1	i	1.6
38	Cc1onc(-c2ccccc2Cl)c1C(=O)Nc1ccccc1	i	0.55
39	Cc1cc(NC(=O)CSc2nc3cc4c(cc3c(=O)n2CCc2ccccc2)OCO4)no1	i	0.7
40	CN(Cc1ccc2nonc2c1)Cc1nc(CC2CC2)no1	i	0.85
41	O=[N+]([O-])c1ccccc1/C=C/CN1CCC(O)CC1	i	2.5
42	CC1CCCN(c2ccc(C(=O)OCn3nnc4ccccc4c3=O)cc2[N+](=O)[O-])C1 (stereo not given)	i	0.31
43	CC1C(=O)Nc2ccc(S(=O)(=O)N3CCN(c4cccc(C(F)(F)F)c4)CC3)cc2NC1=O (stereo not given)	i	0.6
44	Cc1cccc(C)c1OC(=O)Cc1ccccc1[N+](=O)[O-]	i	0.49
45	O=C(O)c1ccc(N/N=C/c2cc3ccccc3nc2Cl)cc1	i	-1.2
46	Cc1ccc(NC(=O)COC(=O)c2ccnn2C)cc1	i	-0.24
47	C#CCN(CC=C)C(=O)c1ccc(OC2CCN(S(=O)(=O)N(C)C)CC2)cc1	i	-0.18
48	CCCNS(=O)(=O)c1ccc(CCC(=O)Nc2ccc3c(c2)OCO3)cc1	i	0.96
49	O=C(CNS(=O)(=O)c1ccccc1F)Nc1ccc(N2CCOCC2)cc1	i	-1.7
50	O=C(NC(NC(=S)Nc1ccccc1C(=O)O)C(Cl)(Cl)Cl)c1ccccc1 (stereo not given)	i	0.66

(continued)
entry	Molecule	KCNQ2 block	KCNQ2 block baseline
51	COc1cc(NC(=O)Cn2nc(Cc3cccnc3)c3ccccc3c2=O)cc(OC)c1OC	i	-0.93
52	COc1ccccc1N(CC(=O)NCc1ccco1)C(=O)CCC(=O)Nc1ccccn1	i	1.1
53	CN1CCN(C(=S)C(=O)NCc2ccccc2)CC1	i	0.86
54	CCSc1nc(C)c(CC)c(C)c1C(N)=O	i	1.5
55	O=C(NCCc1ccc(Cl)cc1)C1CCCN1C(=O)Nc1ccccc1 (stereo not given)	i	0.13
56	COc1ccc(CCCc2n[nH]c(=S)o2)cc1C	i	1.1
57	O=C(CSCC(=O)N1CCOCC1)Nc1ccccc1	i	1.6
58	O=C(N/C(=C\c1ccc([N+](=O)[O-])cc1)C(=O)N1CCOCC1)c1cccc(Br)c1	i	1.7
59	CCOC(=O)C1CCN(S(=O)(=O)c2ccc(Br)c(OCC)c2)CC1	i	0.19
60	O=C(CN1CCCCC1)Nc1cccc(Oc2ccccc2)c1	i	0.2
61	C=CCc1ccc(OCC(O)COc2ccc(CC=C)cc2OC)c(OC)c1	i	-2.4
62	Cc1c(CCOC(=O)c2cccc([N+](=O)[O-])c2)sc[n+]1CC(=O)c1ccccc1	i	-0.11
63	O=C(NC1=C(Nc2ccc(Cl)cc2)C(=O)c2ccccc2C1=O)c1ccccc1	i	-0.58
64	Clc1cccc(CSc2nnc(-c3cccnc3)n2Cc2ccco2)c1	i	-0.03
65	CCCCc1ccc(NC(=O)N2CCNC(=O)C2CC(=O)Nc2ccsc2C(=O)OC)cc1 (stereo not given)	i	0.05
66	Cc1cccc(NC(=O)CN2CCN(C(=O)C3CCCO3)CC2)c1C (stereo not given)	i	-0.04
67	C=CCN(CC=C)C(=O)C1CCN(Cc2ccc(OCc3ccccc3)cc2)CC1	i	0.09
68	Cc1ccc(C(=O)N/C(=C\c2ccco2)C(=O)NCCc2c[nH]c3ccccc23)cc1	i	0.12
69	COc1ccc(/C=N/Nc2nc(C)c([N+](=O)[O-])c(N(C)c3ccccc3)n2)cc1OC	i	1.5
70	O=C1/C(=C/c2ccccc2Cl)SC(=S)N1CCCC(=O)N(CCO)c1ccccc1	i	1.9
71	O=C(CSc1nc2ccccc2[nH]1)Nc1ccccc1F	i	0.76
72	Cc1ccc(OCCOCCn2cnc3ccccc3c2=O)cc1C	i	-0.44
73	Cc1cc(C(=O)NC2CCCN(Cc3ccc(Cl)cc3)C2)n(C)n1 (stereo not given)	i	0.72
74	Nc1ncnc2c1ncn2CCN1CCCCC1	i	-0.13
75	c1ccc(Cc2cc[n+](Cc3ccccc3)cc2)cc1	i	-0.95

(next part)
entry	Molecule	KCNQ2 block	KCNQ2 block baseline
76	O=C(Cc1cccs1)Nc1ccc(-c2nnc(-c3ccccc3)o2)cc1	i	-0.24
77	Cc1ccc(C)c(NNC(N)=S)c1	i	-0.02
78	Cc1cccc(CC2S/C(=N/c3ccccn3)NC2=O)c1 (stereo not given)	i	0.36
79	CN(C)/C=N/NC(=O)C1Cc2c(ccc3ccccc23)O1 (stereo not given)	i	0.43
80	Cc1cc(N2CCN(c3ccc(F)cc3)CC2)nc(-c2ccccc2)n1	i	0.02
81	COc1ccc(/C=N/NC(=O)c2c(Br)cnn2C)c2ccccc12	i	2.7
82	CCC1Oc2ccccc2N(CC(=O)NCCCN2CCOCC2)C1=O (stereo not given)	i	-1.1
83	CN(CC(=O)NC1CCCC1)S(=O)(=O)c1cnc[nH]1	i	-2.1
84	Fc1cccc(NC(=S)NNc2ccccc2)c1	i	-0.74
85	CC(=O)c1ccc(NC(=O)CN2CCC(NC(=O)C3CCCCC3)CC2)cc1	i	3.2
86	CCCc1nn(C)c2c(=O)[nH]c(-c3cc(S(=O)(=O)N(CCO)CCO)ccc3OCC)nc12	i	-0.5
87	CN(C)c1ccc([N+](=O)[O-])cc1C(=O)NCC(c1ccco1)N(C)C (stereo not given)	i	-2.5
88	S=C(Nc1ccc2c(c1)OCCO2)Nc1ccccc1Cl	i	0.59
89	CC(NC(=O)Nc1cccnc1)(C(F)(F)F)C(F)(F)F	i	1.4
90	O=C(Nc1ccn(Cc2c(F)c(F)cc(F)c2F)n1)c1ccc(COc2cc(Cl)ccc2Cl)o1	i	-0.38
91	COc1ccc(CCN(C(=O)C(F)(F)F)C(C(=O)NC2CCCCC2)c2ccc(C)s2)cc1 (stereo not given)	i	0.6
92	Cc1ccc(OCCOC(=O)c2c(-c3ccccc3)noc2C)cc1	i	-0.31
93	Cc1cccc(C2=NN(c3ccc(Br)cc3)[C@@H](C(=O)N3CCOC3=O)[C@@H]2c2ccc(F)cc2)c1	i	-1
94	OCC1(Cc2ccc(F)cc2)CCCN(CCCC(F)(F)F)C1 (stereo not given)	i	-0.05
95	O=C(Nc1ccc(S(=O)(=O)N2CCCC2)cc1)c1ccc(Br)o1	i	-1.4
96	Cc1cc(C)c2oc(=O)cc(CN3CCOCC3)c2c1	i	-0.18
97	COc1cc2[nH]c3c(N4CCN(c5ccc(Cl)cc5)CC4)ncnc3c2cc1OC	i	2.2
98	O=C(Cn1cc([N+](=O)[O-])cn1)NCc1ccccc1Cl	i	2.6
99	COC(=O)Cc1c(C)c2ccc(O)c(CN3CCCC(C)C3)c2oc1=O (stereo not given)	i	1.6
100	Nc1ccccc1SCc1cn2ccccc2n1	i	-1.5

An excerpt from above in order of count of non-hydrogen atoms, highest first:
entry	Molecule	KCNQ2 block	KCNQ2 block baseline
93	Cc1cccc(C2=NN(c3ccc(Br)cc3)[C@@H](C(=O)N3CCOC3=O)[C@@H]2c2ccc(F)cc2)c1	i	-1
99	COC(=O)Cc1c(C)c2ccc(O)c(CN3CCCC(C)C3)c2oc1=O (stereo not given)	i	1.6
88	S=C(Nc1ccc2c(c1)OCCO2)Nc1ccccc1Cl	i	0.59
98	O=C(Cn1cc([N+](=O)[O-])cn1)NCc1ccccc1Cl	i	2.6

Taken from above:
cpd 91 in KCNQ2 block baseline reads 0.6
cpd 95 in KCNQ2 block baseline reads -1.4
cpd 80 in KCNQ2 block baseline reads 0.02
cpd 77 in KCNQ2 block baseline reads -0.02

Next section.
entry	Molecule	KCNQ2 block	KCNQ2 block baseline
101	CCOC(=O)c1cccc(NC(=O)N[C@@H](C)C(=O)OC)c1	i	0.3
102	COc1cccc2cc(-c3nc(-c4cccs4)cs3)c(=O)oc12	i	-0.02
103	O=C(COC(=O)[C@H](Cc1c[nH]c2ccccc12)NC(=O)c1ccc(Cl)cc1)Nc1ccc2c(c1)OCO2	i	-0.77
104	Cc1nn(C)c(Oc2ccccc2)c1CCNC(=O)CC(C)C	i	0.91
105	Oc1ccc(C=Nc2ccc3ncccc3c2)c(O)c1	i	-0.72
106	CC(=O)NCCOc1ccc2oc3ccccc3c2c1	i	1.7
107	CC(C)(C)c1cc(C(F)(F)F)n2ncc(-c3ccccc3)c2n1	i	-0.19
108	COC(=O)C1=C(COc2ccccc2)NC(=O)NC1c1ccc2ccccc2c1 (stereo not given)	i	-0.71
109	COCCn1c(=NC(=O)c2sc3ccccc3c2Cl)sc2cc(S(N)(=O)=O)ccc21	i	0.69
110	Cc1ccc(-c2csc(NC(=O)CCNC(=O)c3ccc(Cl)cc3)n2)cc1	i	-1.1
111	O=C(c1ccc(Cl)cc1)N1CCOc2ccccc21	i	0.43
112	OCCN(CCO)c1ccc(C(c2ccccc2Cl)c2ccc(N(CCO)CCO)cc2Cl)c(Cl)c1	i	0.2
113	CN1c2ccccc2Oc2nnc(N3CCN(Cc4ccccc4)CC3)cc21	i	-1.3
114	C=CCn1c(O)c(N=Nc2ccccc2C)c2ccccc21	i	0.49
115	CC(C)CC(=O)N1CCN(Cc2cccc(F)c2)CC1	i	0.89
116	COc1ccc(CCn2c(O)cc3nn(-c4nc5ccccc5s4)c(=O)c-3c2C)cc1	i	-1.2
117	COc1ccccc1CC(=O)Nc1sc2c(c1C(N)=O)CCCC2	i	-0.05
118	CCOC(=O)C1(Cc2ccccc2C)CCCN(C(=O)c2ccccn2)C1 (stereo not given)	i	-0.08
119	Cc1ccc(/C=C2\SC(=S)N(/N=C/c3cc([N+](=O)[O-])ccc3O)C2=O)o1	i	-0.91
120	O=C(NN=C1CCC(c2ccccc2)CC1)c1ccccc1-n1cccc1 (stereo not given)	i	-0.01

Values by screen from the entries so far.
KCNQ2 block baseline, nos. 108 to 118: -0.71, 0.69, -1.1, 0.43, 0.2, -1.3, 0.49, 0.89, -1.2, -0.05, -0.08

Source: PubChem
